PKD1 kinase inh – inhibitors of human PKD1 kinase, biochemical, fluorescence polarization; inhibition, %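 (about 10 µM by stock and volumes)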; 200,000 compounds, 0.056% hits; PKD1 kinase fluorescence polarization assay;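 active = inhibition of 50% or more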;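 note: controls were vehicle for no effect and a reference inhibitor for full effect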
GALR2 agonist – GALR2 receptor agonists, primary screen, cell-based; Galanin receptor type 2 (Homo sapiens), O43603; GALR2-expressing cells, agonist activation read-out; activation, %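 (tested at 5 µM)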; 140,000 compounds, 0.48% hits;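 active = above mean plus 3 SD of all compounds, about 5% in these data, not always enough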;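 note: 0% = vehicle buffer wells and 100% = reference agonist at full effect; tested in CHO reporter cells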
Target sequence (O43603 whole entry, looked up): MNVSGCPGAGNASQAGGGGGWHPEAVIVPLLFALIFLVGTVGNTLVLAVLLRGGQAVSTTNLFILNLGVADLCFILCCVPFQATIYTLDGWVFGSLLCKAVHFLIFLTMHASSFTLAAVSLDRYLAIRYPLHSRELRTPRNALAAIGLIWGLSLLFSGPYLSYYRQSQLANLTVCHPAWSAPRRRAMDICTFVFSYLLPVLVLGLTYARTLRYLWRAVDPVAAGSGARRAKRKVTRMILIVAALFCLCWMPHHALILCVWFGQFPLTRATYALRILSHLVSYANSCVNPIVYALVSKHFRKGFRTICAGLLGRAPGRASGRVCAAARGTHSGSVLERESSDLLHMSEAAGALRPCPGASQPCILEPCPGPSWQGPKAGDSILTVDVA
HSV replic up – enhancers of HSV replication in host cells, fold increase, host cell viability. HSV replication augmentation in cells. maximum fold increase. 220,000 compounds, 0.005% hits;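 active = peak rise of 1.5-fold or more in the series; tested in PC3 cells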;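 note: first round at 10 µM; read as green reporter fluorescence; hits show the peak of a series up to 25 µM; 1 = signal of infected wells without compound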
Insulin prom inh – inhibitors of insulin promoter-driven GFP, primary screen, imaging, TRM-6 cells (human fetal islet line), eGFP reporter, cell count; inhibition, % at 2 µM; reporter expression induced with tamoxifen; 130,000 compounds, 0.9% hits; AID 1273, 2008;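 active = inhibition above the mean plus 3 SD, with well images judged a real hit on visual review, cut at about 60% in these data, passing the limit was not always enough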
RGS16-Gao HTS – modulators of RGS16 binding to Galphao, primary screen, biochemical, human proteins, multiplexed bead flow cytometry. 220,000 compounds, 0.38% hits. AID 1441, 2008. Regulator of G-protein signaling 16 (Homo sapiens) + Guanine nucleotide-binding protein …. binding response (% of control), % at 10 µM. bead-based flow cytometry RGS16-Galphao binding, fluorescence; actives lie on both sides;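 active = below 25% or above 175%, edge rows of some plates excepted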;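 note: Galphao activated by GDP with aluminum fluoride before binding; 100% = wells without compound and 0% = beads without RGS; some results beyond the cut were filed as inactive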
Target sequence (O15492 whole entry, looked up): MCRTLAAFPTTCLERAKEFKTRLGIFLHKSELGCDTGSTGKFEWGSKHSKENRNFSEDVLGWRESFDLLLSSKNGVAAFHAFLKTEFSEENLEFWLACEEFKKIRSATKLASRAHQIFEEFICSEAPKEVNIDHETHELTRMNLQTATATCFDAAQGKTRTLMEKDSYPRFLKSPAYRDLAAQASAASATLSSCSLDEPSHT
Target sequence (P09471 whole entry, looked up): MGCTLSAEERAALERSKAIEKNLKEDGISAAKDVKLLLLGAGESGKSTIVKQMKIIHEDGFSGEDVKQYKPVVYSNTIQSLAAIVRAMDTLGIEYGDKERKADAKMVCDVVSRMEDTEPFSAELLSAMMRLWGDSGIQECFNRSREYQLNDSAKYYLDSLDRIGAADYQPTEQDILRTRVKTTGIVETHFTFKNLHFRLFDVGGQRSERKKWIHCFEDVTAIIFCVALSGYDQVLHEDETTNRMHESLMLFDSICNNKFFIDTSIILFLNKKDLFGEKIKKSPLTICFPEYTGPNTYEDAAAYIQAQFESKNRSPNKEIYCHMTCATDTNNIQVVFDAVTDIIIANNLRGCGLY
Insulin prom inh cell count – further read-out of Insulin prom inh, marked with its call; normalized cell count, %; measured here: cell count, toxicity; reference of the scale not given here;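 cells exposed to compound for 48 h; stained nuclei by imaging scaled within each plate; lower means fewer cells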
HSV replic up primary fold – further read-out of HSV replic up, marked with its call; fold increase; compound at 10 µM; measured here: primary screen fold increase 10 uM; tested in PC3 cells;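 GFP signal in the first replicate; 1 = infected wells without compound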
* marks the source's active call; other numbers are inactive results; i = inactive; x = not tested or not shown. Compounds were not picked by outcome; 1.3% or so of the library scored in one or more.

SMILES	PKD1 kinase inh	GALR2 agonist	HSV replic up	HSV replic up primary fold	Insulin prom inh	Insulin prom inh cell count	RGS16-Gao HTS
O=C(CC12CC3CC(C1)CC(CC(=O)N1CCCC1)(C3)C2)N1CCCC1	-5.0	-3.3	i	0.95	-44.4	129.8	110.3
CCCCNC(=S)NNC(=O)c1sccc1C	18.3	-2.1	i	0.72	-6.5	112.2	99.6
CCC(=O)c1cc(F)c(N2CCN(S(=O)(=O)c3ccc(C)cc3)CC2)cc1C	3.8	-0.7	i	1.04	x	x	100.2
COC(=O)c1ccc(C)c(NC(=O)CCc2ccc(OC)cc2)c1	-5.7	-1.2	i	0.95	-14.3	58.6	100.1
CCN(CC)c1ccc(C=Nc2ccc(C)cc2C)c(O)c1	-3.2	x	i	0.97	x	x	103.2
COc1ccc(S(=O)(=O)NN(C)c2ncc(C(F)(F)F)cc2Cl)cc1	-1.1	x	x	x	-15.4	119.7	98.2
Cc1cc(NC(=O)CN2C(=O)NC(Cc3ccccc3)C2=O)no1 (stereo not drawn)	6.2	-1.5	i	1.03	-37.5	96.8	97.3
COc1ccc(C(=O)NNS(=O)(=O)c2ccc(C)cc2)cc1	5.7	-1.3	i	1.09	-12.1	77.8	100.2
COc1ccc(NC(=O)CC2SC(=NCc3ccccc3OC)NC2=O)cc1 (stereo not drawn)	1.5	-0.7	i	0.99	-51.6	114.8	102.5
Cc1cccc(Cn2ncc(Cl)c(Cl)c2=O)c1	-2.5	-1.0	i	0.49	x	x	83.8

In a second layout: entries from further up
| structure | PKD1 kinase inh | GALR2 agonist | HSV replic up | HSV replic up primary fold | Insulin prom inh | Insulin prom inh cell count | RGS16-Gao HTS |
| --- | --- | --- | --- | --- | --- | --- | --- |
| COc1ccc(C(=O)NNS(=O)(=O)c2ccc(C)cc2)cc1 | 5.7 | -1.3 | i | 1.09 | -12.1 | 77.8 | 100.2 |
| COc1ccc(NC(=O)CC2SC(=NCc3ccccc3OC)NC2=O)cc1 (stereo not drawn) | 1.5 | -0.7 | i | 0.99 | -51.6 | 114.8 | 102.5 |
| Cc1cccc(Cn2ncc(Cl)c(Cl)c2=O)c1 | -2.5 | -1.0 | i | 0.49 | x | x | 83.8 |

Additional records.
SMILES	PKD1 kinase inh	GALR2 agonist	HSV replic up	HSV replic up primary fold	Insulin prom inh	Insulin prom inh cell count	RGS16-Gao HTS
Cc1noc(C)c1COC(=O)c1ccccc1NC(=O)c1ccco1	-6.2	x	i	0.89	x	x	97.9
CCCCOc1ccc(C(=O)N/C(=C\c2cccc([N+](=O)[O-])c2)C(=O)OC(C)C)cc1	-5.8	-3.0	i	0.94	x	x	113.6
Cc1cc(C)c(NS(=O)(=O)c2ccc(NC(=O)/C=C/C(=O)O)cc2)c(C)c1	-5.5	0.2	i	1.08	13.8	108.0	1.1*
COc1ccc(Nc2ncnc3sc(-c4ccccc4)cc23)cc1OC	-6.6	-1.3	i	0.77	-14.8	103.0	109.5
Cc1cccc2sc(NNC(=O)c3cc(=O)c4ccccc4o3)nc12	-2.9	x	x	x	x	x	99.6
Cc1ccccc1NC(=S)N(Cc1ccco1)C(C)c1cccs1 (stereo not drawn)	-6.9	x	i	1.04	-44.4	97.3	101.1
Cc1cc(NC(=O)Cn2nc([N+](=O)[O-])c(Br)c2C)no1	0.5	x	i	0.96	x	x	101.1
CSc1nnc2n(-c3ccc(C)cc3)c(=O)c3c4c(sc3n12)COC(C(C)C)C4 (stereo not drawn)	-1.4	-1.6	i	0.78	x	x	100.9
CCNC(=O)C1=C(O)c2sccc2N(C)S1(=O)=O	-3.5	x	i	0.97	-31.2	138.1	102.5
CC1(C)CC(=O)/C(=C(\O)CCCN2C(=O)c3ccccc3C2=O)C(=NCCO)C1	-11.7	x	i	1.12	0.0	119.9	103.3
Oc1ccc2cc(Br)ccc2c1CN1CCCC1	-9.9	x	i	0.94	-40.0	86.2	154.5
Cc1cc(NC(=S)Nc2cccc3ccccc23)n[nH]1	-6.8	x	i	1.02	-35.3	96.3	99.5
CC(C)(Oc1ccc(Cl)cc1)C(=O)OCn1nnc2ccccc2c1=O	4.5	-1.8	i	0.84	x	x	102.5
CCCCC(CC)CNC(=O)CCS(=O)(=O)c1cccc2nonc12 (stereo not drawn)	2.2	-2.1	x	x	x	x	104.0
O=C(NC1CC1)C1CCN(c2ccc(S(=O)(=O)N3CCOCC3)cc2)CC1	-6.4	-2.0	i	0.96	40.5	109.8	105.7
CC(=O)c1cc(CN2CCN(CCc3ccccc3)C(CCO)C2)cs1 (stereo not drawn)	-6.8	x	i	0.77	x	x	103.0
CC(C)n1nc(C(=O)Oc2cccc(Cl)c2Cl)c2ccccc2c1=O	-3.6	0.0	i	1.19	x	x	96.0
O=C(OCc1ccc([N+](=O)[O-])cc1)c1ccc(N2CCCC2)c([N+](=O)[O-])c1	-6.7	-0.2	i	1.11	x	x	96.6
C=CCn1c(SCC(=O)NNC(=S)Nc2ccccc2)nnc1-c1ccccc1	x	x	i	0.88	x	x	90.8
CCOC(=O)/C=C1\SCC(=O)N1CC(=O)N1CCOCC1	-7.3	x	i	0.98	-20.0	115.3	92.0

3 of the compounds above, in markdown.
| canonical_smiles | PKD1 kinase inh | GALR2 agonist | HSV replic up | HSV replic up primary fold | Insulin prom inh | Insulin prom inh cell count | RGS16-Gao HTS |
| --- | --- | --- | --- | --- | --- | --- | --- |
| CC(C)n1nc(C(=O)Oc2cccc(Cl)c2Cl)c2ccccc2c1=O | -3.6 | 0.0 | i | 1.19 | x | x | 96.0 |
| O=C(OCc1ccc([N+](=O)[O-])cc1)c1ccc(N2CCCC2)c([N+](=O)[O-])c1 | -6.7 | -0.2 | i | 1.11 | x | x | 96.6 |
| C=CCn1c(SCC(=O)NNC(=S)Nc2ccccc2)nnc1-c1ccccc1 | x | x | i | 0.88 | x | x | 90.8 |

Going on with the list.
SMILES	PKD1 kinase inh	GALR2 agonist	HSV replic up	HSV replic up primary fold	Insulin prom inh	Insulin prom inh cell count	RGS16-Gao HTS
C/C(N)=C(/C#N)C(=O)COC(=O)c1ccc(C#N)cc1	1.7	x	i	0.9	-26.7	124.8	66.9
CN(Cc1cn(-c2ccccc2)nc1-c1cc2ccccc2o1)C(=O)CCC(=O)O	0.4	x	i	0.97	-107.7	106.7	99.0
CCOc1ccc2[nH]c(C)c(CN3CCOCC3)c(=O)c2c1	-4.3	-1.0	i	1.07	-5.6	147.6	100.6
Cc1ccc(NS(=O)(=O)c2ccc(C(=O)N3CCN(c4ncccn4)CC3)cc2)cc1	-2.5	x	i	0.88	30.8	116.0	101.7
COc1ccc(C(=O)Nc2nc(-c3ccccc3)c(C(C)=O)s2)c(OC)c1	-1.3	x	i	0.78	64.3	92.4	111.0
O=C(NCC1CCCO1)C(c1cccs1)N(Cc1cccs1)C(=O)c1ccc(-c2ccccc2)[nH]1 (stereo not drawn)	-3.2	1.5	i	0.81	13.9	105.1	122.9
COc1ccc(N2CCN(C(=O)c3cccnc3)CC2)c([N+](=O)[O-])c1	0.0	x	i	1	x	x	99.9
CC(O)c1nc2ccccc2n1Cc1nnc(-c2ccc(Cl)cc2)o1 (stereo not drawn)	-5.0	-2.1	i	1	x	x	100.6
O=C(CC1SC(N2CCOCC2)=NC1=O)Nc1cc([N+](=O)[O-])ccc1Cl (stereo not drawn)	-3.4	x	i	1.03	x	x	98.0
CN1CCN(C(=O)CN(Cc2ccc(Cl)cc2)S(C)(=O)=O)CC1	-2.5	-1.9	i	0.87	i	60.5	101.7
COc1ccc(NC(=O)c2c(N)no[n+]2[O-])c(OC)c1	5.3	x	i	0.88	-8.3	29.6	106.3
Clc1ccc(OCCOCCN2CCCCC2)c(Br)c1	10.9	-1.2	i	0.76	-51.4	55.3	105.0
COc1cc(CNC(=O)C2CCCN2S(=O)(=O)c2ccccc2)cc(OC)c1OC (stereo not drawn)	-3.7	x	i	1.07	-78.6	98.4	105.7
O=C(NC(Cc1ccc(O)cc1)C(=O)O)c1ccco1 (stereo not drawn)	3.4	x	i	1.04	x	x	57.8
CC(O)/C=C/c1ccc2ccccc2n1 (stereo not drawn)	-8.6	-2.0	i	0.85	28.1	101.2	113.7
N#CCCS(=O)(=O)c1ccc(N)cc1	-8.6	0.8	i	1.07	-10.3	104.1	139.3
Cc1nn(-c2ccccc2)c2sc(C(=O)O)cc12	-8.3	0.3	i	1.25	9.1	109.1	95.6
CCC(CC)COC(=O)C(C#N)c1nc2ccccc2nc1N1CCN(CC)CC1 (stereo not drawn)	5.7	0.6	i	0.91	12.1	88.5	105.9
COc1ccc(-c2[nH]ncc2CN(CCO)CC23CC4CC(CC(C4)C2)C3)c(OC)c1	-3.0	x	i	0.84	x	x	97.7
CSc1ccn(CCC(=O)O)c(=O)n1	-8.6	-1.4	i	1	-36.8	31.6	100.8
CN(c1ccc(C(=O)Nc2nccs2)cc1)S(=O)(=O)c1ccccc1	-5.9	-1.4	i	0.89	-114.8	123.8	111.7
CCOC(=O)CNC(=O)c1cccnc1Oc1ccc(Cl)cc1	x	x	i	1.09	x	x	99.8
CCCS(=O)(=O)Nc1c(OC)ccc2c1c(C(=O)OCC)c(C)n2C	5.2	-1.7	i	0.97	x	x	80.1
Cc1ccc(N(CN2C(=O)NC(C)(C)C2=O)CN2C(=O)NC(C)(C)C2=O)cc1	-17.4	-2.5	i	0.93	-19.2	58.9	101.2
O=C(NC1CCCCC1)c1ccccc1NC(=O)C1CC(=O)N(c2ccccc2)C1 (stereo not drawn)	-15.0	-2.8	i	0.82	3.5	151.8	114.5
COc1ccc(C(=O)NNC(=O)CN2CCC(n3nnc4cc(C(F)(F)F)ccc43)CC2)cc1	0.7	-1.6	i	0.94	x	x	112.7
COC(=O)C(C)Oc1ccc(-c2nccc(-c3cccs3)n2)cc1 (stereo not drawn)	9.8	-2.6	i	0.95	30.0	137.0	109.0
COc1ccc(NC(=S)Nc2cccc(C(F)(F)F)c2)c(C)c1	1.4	x	i	0.85	x	x	87.4
Cc1ccc(-c2nc3ccccc3[nH]2)s1	-3.8	-2.7	i	0.93	x	x	114.5
O=C(NCc1ccc(C(F)(F)F)cc1)C12CN(Cc3ccccc3)CC1C(c1cccc([N+](=O)[O-])c1)=NO2 (stereo not drawn)	-1.1	-0.8	i	0.78	-27.3	75.0	121.8
Cc1[nH]c(C)c(C(=O)O)c1CNC1CCCCC1C (stereo not drawn)	-13.1	-1.0	i	0.94	-11.5	117.4	101.7
O=C(NC(=S)N1CCCc2ccccc21)c1ccc([N+](=O)[O-])cc1	-9.9	-2.5	i	1.17	50.0	87.2	146.8
C/C(=N\NC(=O)c1ccccc1O)c1c(O)cc(C)oc1=O	-9.9	-1.0	i	0.82	43.2	58.9	91.5
O=C(NNc1nc2ccc(Cl)cc2s1)c1cc(-c2cccs2)nc2ccccc12	-7.1	-0.8	x	x	10.0	96.6	99.7
O=C(NC(Cc1c[nH]c2ccccc12)c1nnc2n1CCCCC2)c1ccccc1 (stereo not drawn)	-6.5	-2.3	i	0.91	-40.5	80.2	103.0
Cc1cc(C)cc(COn2ccnc2)c1	-2.0	-0.4	i	1.04	67.9*	42.6*	98.3
COC(=O)C1=C(N)OC2=C(C(=O)CC(C)(C)C2)C1c1cccs1 (stereo not drawn)	-18.0	-0.5	i	0.94	8.8	99.1	107.0
CC1(C)Cc2c(sc3c2c(=N)n(Cc2ccco2)c(=O)n3Cc2ccccc2)CO1	1.0	-1.9	i	0.86	-13.8	158.3	93.5
C/C(=C\COc1cc(=O)[nH]c2ccccc12)CCC(O)C(C)(C)O (stereo not drawn)	7.1	x	i	0.7	x	x	97.7
COc1cc(CNc2nc3ccccc3n2C)cc(OC)c1OC	-3.2	-1.0	i	1.01	20.0	108.0	105.1
Cc1cccc(NS(=O)(=O)c2ccc(Oc3ccccc3)cc2)n1	6.3	-2.4	i	0.9	-284.6	100.2	106.7
O=C(CSc1nc2ccccc2n1S(=O)(=O)c1ccccc1)N1CCCCC1	-1.5	-0.6	i	0.89	-21.1	59.6	102.9
Cc1ccc(S(=O)(=O)N2CCCCC2)cc1NC(=O)COC(=O)C1=COCCO1	-0.7	x	i	0.99	18.8	97.3	101.8
O=S(=O)(NC1CCCCCCC1)c1cccs1	11.4	-1.0	i	0.85	-20.0	85.0	101.3
O=C1CN=C(Nc2ccccc2)N1Cc1cccs1	-7.8	-2.1	i	0.82	57.9	109.3	103.4
Cc1nn(C2CCS(=O)(=O)C2)c(Cl)c1/C=C/C(=O)OCC(=O)Nc1ccccc1[N+](=O)[O-] (stereo not drawn)	-1.4	x	i	1	x	x	98.4
Cc1cc(-c2cc(C(=O)NC3CCCC3)on2)nc(NCC2CC2)n1	x	x	i	0.94	x	x	95.7
